Screening results deposited in PubChem by several laboratories.
T cruzi inh: inhibitors of intracellular T. cruzi growth, primary screen, luminescence, NIH3T3 host cells; hit rate 1.4% among 300,000; AID 1885, 2009; inhibition, % (no concentration beside the values); T. cruzi beta-gal in NIH3T3, 90 h;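 active = mean inhibition across valid replicates above about 55%, limit read from the data; inconclusive = mean below that limit but half or more replicates reach it; inactive = mean below it, under half of replicates reach it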;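 note: signal also drops with host cell toxicity which is not excluded here; 0% = plate median of DMSO wells and 100% = zero luminescence signal; higher percent means less beta-gal luminescence so fewer parasites; stock transfer was 50 nL into about 50 µL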
Calb FLC: C. albicans growth inhibition with fluconazole, primary screen, CaCi-2 strain, Alamar Blue fluorescence. C. albicans CaCi-2 (fluconazole-resistant clinical isolate) + fluconazole, 48 h. growth inhibition, % (concentration not given with the values). hit rate 0.57% among 300,000;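 active = most replicates above 75%; inconclusive = exactly half above 75%; inactive = most below 75%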;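 note: all wells also contain fluconazole at 8 µg/ml as a sub-toxic cotreatment; 0% = median of DMSO wells and 100% = median of geldanamycin control wells; wells of about 8 µL received 7.5 nL stock; the first replicate is given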
Vif TR-FRET: inhibitors of Vif binding to APOBEC3G peptide, primary screen, biochemical, TR-FRET, GST-Vif 1-94, biotin-A3G peptide, dose response retest (AID 1117319); Virion infectivity factor (Human immunodeficiency virus type 1 group M subtype B (isolate …; TR-FRET GST-Vif / biotin-A3G peptide binding; higher % means a stronger effect; test concentration not given here; strong numbers were not always called active; inhibition, %, or IC50 in µM where a hit was titrated; hit rate 0.57% among 260,000;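 active = above the screen mean plus three standard deviations and confirmed in dose response; inconclusive = results disagree or hit not tested in dose response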;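 note: Vif residues 1-94 fused to GST binding biotinylated APOBEC3G peptide 110-148; 0% = full assay without inhibitor and 100% = GST in place of GST-Vif; retest series ran down from 100 µM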
Ecoli rRNA inh: reduced GFP signal of wild-type E. coli, primary screen, bacterial rRNA inhibitor project, GFP/RFP fluorescence, OD600, single point | hit rate 1.6% among 350,000 | E. coli WT GFP vs humanized-ribosome RFP mutants, 24 h; active compounds read low; DMSO median 0, no signal -100 | GFP signal change (wild-type ribosome), % (test concentration not listed) | AID 720706, 2013;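 active = significant combined selectivity score with lowered wild-type GFP, culture density cut under 30%, mutant RFP and density less affected; inactive = any of these conditions unmet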; note: one replicate is shown; some compounds called inactive have numbers as strong as hits
A1 inh: caspase 3/7 activation in MEF A1-2A-BIM cells, primary screen, A1 inhibitor project, cell-based, luminescence, HTS; Caspase-Glo 3/7 luminescence, 3 h; percent of clofoctol response, vehicle zero; caspase activation, % (concentration not given with the values); hit rate 0.066% among 330,000; AID 2462, 2010;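 active = over half of replicate activation scores above 10%, or exactly half above 10 with the replicate mean above 10; inconclusive = replicate mean below 10 yet half the replicates above 10; inactive = over half of replicates below 10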;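 note: wells of about 30 µL received 50 nL stock; many hits fall short of the cut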
MLL AF4-AF9 inh: inhibitors of AF4 peptide binding to AF9, primary screen, biochemical, AlphaScreen, biotin-AF4 peptide, FLAG-AF9, single point | hit rate 0.47% among 350,000 | inhibition, % at 10 µM;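 active = every replicate reaching a set inhibition limit, whatever the replicate mean, cut at about 25% in these data; inconclusive = mean inhibition reaches that limit but some replicates miss it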;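 note: 0% = plate neutral control median and 100% = total signal loss; the record names both 10 and 1 µM as test concentration; the first replicate is given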
Target sequence (P42568 whole entry, looked up): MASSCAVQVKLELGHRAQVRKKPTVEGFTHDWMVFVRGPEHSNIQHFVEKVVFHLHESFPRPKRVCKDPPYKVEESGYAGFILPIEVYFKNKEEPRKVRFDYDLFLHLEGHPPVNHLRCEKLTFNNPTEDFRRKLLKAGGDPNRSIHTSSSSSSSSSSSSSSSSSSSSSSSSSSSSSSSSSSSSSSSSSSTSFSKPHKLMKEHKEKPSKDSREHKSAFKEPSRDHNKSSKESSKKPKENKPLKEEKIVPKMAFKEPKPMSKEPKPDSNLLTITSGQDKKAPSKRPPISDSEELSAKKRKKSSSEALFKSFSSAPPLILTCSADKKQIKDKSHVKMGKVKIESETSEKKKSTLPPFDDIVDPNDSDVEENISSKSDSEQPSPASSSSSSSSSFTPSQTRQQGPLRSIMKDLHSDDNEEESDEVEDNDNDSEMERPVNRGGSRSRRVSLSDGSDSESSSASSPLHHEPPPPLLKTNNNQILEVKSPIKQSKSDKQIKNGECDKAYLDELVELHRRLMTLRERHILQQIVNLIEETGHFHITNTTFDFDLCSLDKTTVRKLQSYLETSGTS
Beta apoptosis: inhibitors of cytokine-induced beta cell apoptosis, primary screen, luminescence. INS-1E cytokine-induced death, ATP luminescence, 48 h; percent of positive-control rescue, neutral wells zero. protection from apoptosis, % (concentration not given with the values). hit rate 0.8% among 300,000. AID 435005, 2010;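 active = all replicates at 75% or more, or half of them and the mean; inconclusive = half reach 75% but not the mean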;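 note: 0% = cytokine-treated negative control wells and 100% = positive control rescue; higher means more ATP so stronger rescue from cytokine killing; wells of about 40 µL received 100 nL stock; the first replicate is given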
RanGTP-Imp inh: inhibitors of RanGTP-importin-beta interaction, primary screen, biochemical, FRET, CFP-Ran, YFP-importin-beta, homogeneous; Ran GTPase (GTP-bound) - importin-beta complex; cell-free CFP-Ran/YFP-importin-beta FRET ratio; inhibition, % (no concentration beside the values); hit rate 1.1% among 300,000; AID 2216, 2009;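 active = most replicates above 15%; inconclusive = exactly half above 15%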;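 note: 0% = DMSO wells and 100% = Ran loaded with GDP instead of GTP; wells of about 40 µL received 100 nL stock; the first replicate is given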
Ecoli rRNA inh OD600: also measured in Ecoli rRNA inh; calls as there; OD600 change, %; measured here: OD600 growth;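 optical density of the mix in the first replicate; 0 = DMSO median and -100 = no signal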
Ecoli rRNA inh RFP: also measured in Ecoli rRNA inh; calls as there; RFP signal change, %; measured here: RFP humanized mutant strains;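 first replicate; 0 = DMSO median and -100 = no signal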
An asterisk follows results filed as active; ? = inconclusive; · = not tested or not shown; & = joins results of further samples. Some of the compounds tested. The share of hits here may be higher or lower than overall.

SMILES	T cruzi inh	Calb FLC	Vif TR-FRET	Ecoli rRNA inh	Ecoli rRNA inh OD600	Ecoli rRNA inh RFP	A1 inh	MLL AF4-AF9 inh	Beta apoptosis	RanGTP-Imp inh
CSc1ccccc1C(=O)N1CCN(c2cccc(Cl)c2)CC1	-1	2	-2%	-54	-78	-26	0.7	2.2	-4	-1.1
Oc1ccc2ccccc2c1N=Nc1ccccc1F	-3	1	4%	13	6	-5.9	-1.0	10	0	-6.8
COc1cc(C=C2C(=O)OC(c3ccccc3)OC2=O)cc(Br)c1O (stereo not given)	-21	3	16%	12	1	-2.9	-0.1	0.1	-1	-2.6
Cc1cccc(C=Nc2ccc3c(c2)oc2ccccc23)c1O	-8	-5	4%	1	9	-1.2	-1.5	-3.8	-9	0.0
COc1cccc(-c2c(C(=O)N/N=C/c3ccc(C)s3)nnn2-c2nonc2N)c1	1	0	·	-12	-18	-1.8	0.7	-1.7	-7	1.8
C=CCn1c(SCC(=O)N(CC)C2CCS(=O)(=O)C2)nc2cc(C(=O)O)ccc2c1=O (stereo not given)	·	·	-9%	·	·	·	0.3	1.2	-2	·
CN(C)CCC(=O)N1c2ccccc2Sc2ccc(Cl)cc21	5	-2	·	1	-3	3.6	0.4	3.9	10	-2.9
CC(C)COC(=O)C(C#N)c1nc2ccccc2nc1N1CCN(Cc2ccccc2)CC1 (stereo not given)	27	4	-2%	·	·	·	0.1	·	9	?
CCN(CC)C(=O)Nc1ccc(C(=O)OC)cc1	-13	-5	-7%	·	·	·	-0.4	·	-4	-3.4
O=S(=O)(Nc1ccc(Cl)cn1)c1cccc(S(=O)(=O)c2ccccc2)c1	23	-14	3%	11	-6	-2.7	0.1	-2.7	-2	-3.5
CCOc1ccccc1NC(=S)N(CCC(C)C)C1CCN(C(C)=O)CC1	10	-5	8%	1	4	7.0	0.1	-7.7	-5	-2.4
O=C(NC1CCCCC1)C(c1ccco1)N(C(=O)c1csnn1)C1CCCC1 (stereo not given)	6	1	5%	·	·	·	-0.1	·	·	0.0
Cc1cccc(Nc2nc(-c3sc(C)nc3C)cs2)c1	21	52	·	-4	-1	-0.7	0.0	1.6	·	-4.3
C=CCOc1cccc(C2/C(=C(\O)c3ccc4c(c3)OCCO4)C(=O)C(=O)N2Cc2cccnc2)c1 (stereo not given)	-13	13	-2%	1	5	-3.4	0.0	2.9	-5	4.3
CCOC(=O)c1ccc(NC(=O)NCCc2cnc[nH]2)cc1	-12	12	?	-1	10	0.4	-0.4	-0.4	·	0.5
Cc1ccc(S(=O)(=O)N(C)C)cc1NC(=O)CSc1nnnn1-c1ccc(O)cc1	2	10	1%	-5	-3	-2.1	1.9	-2.6	-9	-5.8
C[C@H]1COC(=O)[C@@H](CC(=O)OC(C)(C)C)C/C=C\C[C@@H](CC(=O)N(CCO)Cc2ccccc2)C(=O)N1	·	·	·	-3	9	-2.1	-0.3	-15	-3	·
COc1ccc(-n2c(SCC(N)=O)nnc2-c2ccco2)cc1	-9	3	·	11	4	1.7	0.1	1.5	-4	-2.5
CC(=O)c1cnc2c(C(=O)O)cnn2c1C	-2	4	0%	12	-1	-4.6	0.5	-3.6	-16	-1.6
O=c1[nH]c(=O)c2ncc(-c3ccc(Cl)cc3)nc2[nH]1	-9	2	·	·	·	·	1.0	·	0	-0.9
CCCOC(=O)C(C)n1cnc2sc(C)c(C)c2c1=O (stereo not given)	-6	2	25%	·	·	·	-0.7	·	0	-2.3
COc1cccc(COc2ccccc2C2Nc3ccc(Br)cc3C(=O)N2NC(=O)c2ccncc2)c1 (stereo not given)	32	-4	-5%	·	·	·	1.2	·	-2	3.9
S=c1nc2ccccc2c2nc(-c3ccccc3Cl)[nH]n12	3	37	·	3	0	-0.8	1.2	1.5	10	2.3
Cc1c(O)c(C)c2c(c1O)C(=O)C[C@@H](c1ccccc1)O2	·	·	·	-16	-16	-6.4	0.1	-21	-1	·
O=C(NC1CC2CCC(C1)N2C(=O)NCc1ccccc1)NC12CC3CC(CC(C3)C1)C2 (stereo not given)	-9	-14	-1%	·	·	·	0.0	·	-3	3.6
CC(=O)NC1=NN(C(C)=O)C(c2ccc(F)cc2)S1 (stereo not given)	-5	-27	·	12	10	0.0	0.0	1.5	-2	?
c1ccc2c(c1)CCCN2c1nc2ccccc2n2cnnc12	-13	-3	8%	-5	-15	2.0	0.3	-3.0	-2	3.3
COc1cccc(CN(C(=O)c2ccccc2Cl)C2CCS(=O)(=O)C2)c1 (stereo not given)	0	-8	·	10	20	0.2	-0.4	-6.9	-6	0.3
Cc1cc(NC(=O)CCC(=O)N(c2ccccc2)C(C(=O)NC2CCCC2)c2ccccc2)no1 (stereo not given)	6	?	·	·	·	·	0.3	·	-2	4.8
Cc1ccc(S(=O)(=O)NC(C)C(=O)NCc2ccc(Cl)cc2)cc1 (stereo not given)	7	-3	·	-23*	-11*	-4.0*	0.2	-2.0	7	-6.4
O=C(CN1CCOCC1)NCCC12CC3CC(CC(C3)C1)C2	2	1	1%	·	·	·	0.0	·	-3	-1.1
COc1ccc(N2CCN(C(=O)CN(Cc3ccccc3)S(C)(=O)=O)CC2)cc1	-10	-4	-1%	-5	1	-2.5	-0.1	8.5	3	3.0
O=[N+]([O-])c1ccccc1CNC1CCCc2ccccc21 (stereo not given)	-11	-11	-8%	-4	-3	-6.6	?	5.4	-7	2.4
Cc1ccc(Oc2ncccc2NC(=O)CCCC(=O)O)c2c1CCC2	0	17	-1%	6	-3	0.4	0.4	-3.5	·	3.0
COc1cccc(NC(=O)CCCn2c(=S)[nH]c3ccccc3c2=O)c1	8	-18	-7%	·	·	·	0.5	·	2	1.4
CCC(C)N(CCNC(=O)c1ccc2c(c1)NC(=O)c1ccccc1S2)C1CCCCC1 (stereo not given)	27	-30	-1%	-60	-81	-16	1.3	12	2	2.5
O=C(O)c1ccc(S(=O)(=O)Nc2cccc(CP(=O)(c3ccccc3)c3ccccc3)c2)cc1	0	3	10%	2	-3	-3.1	-0.1	-6.6	-2	-5.0
N#C/C(=C/c1cccn1-c1cccc(C(=O)O)c1)c1ccc(Cl)cc1	-5	58	?	-63	-79	-22	-0.1	-2.0	-9	-1.7
COc1cc(C(=O)N2CCN(S(=O)(=O)c3ccc(C)cc3C)CC2)ccc1OCC(=O)N1CCOCC1	·	·	-8%	4	13	-0.3	0.1	-0.4	2	·
Cn1c(=S)[nH]c2scc(-c3cccs3)c2c1=O	-11	?	·	-32	-45	-16	·	-0.7	·	0.4
COc1cccc2cc(C(=O)NCc3ccccc3Cl)c(=O)oc12	3	-1	·	15	7	0.1	-1.8	-1.0	·	-1.9
CCOc1ccccc1NC(=O)C1CCCN1C(=O)c1cccs1 (stereo not given)	·	·	6%	-3	8	-2.0	1.1	-1.1	-1	·
Cc1ccccc1C(=O)N1CCN(c2ccc(NC(=O)c3cccnc3Cl)cc2)CC1	4	18	-6%	9	4	1.8	-0.4	0.3	4	-0.2
Clc1ccccc1N1CCN(Cc2ccco2)CC1	-9	2	·	8	7	-8.6	-1.2	1.2	1	-0.7
Cc1ccccc1NC(=S)NC(NC(=O)N(C)C)C(Cl)(Cl)Cl (stereo not given)	8	2	13%	·	·	·	1.1	·	1	-2.6
COC(=O)c1c(NC(=O)C2C3CCC(O3)C2C(=O)O)sc2c1CCCCCC2 (stereo not given)	-6	15	13%	·	·	·	-0.1	·	·	5.7
CCCCn1c(SCC(=O)NC(C)CC)nc2ccc(N3CCOCC3)cc2c1=O (stereo not given)	2	34	24%	·	·	·	0.6	·	-10	-3.7
C[C@@H](C(=O)N1CCN(c2ccccc2)CC1)N1C(=O)C2CC=CCC2C1=O (stereo not given in full)	·	·	·	-4	-6	2.4	1.3	-1.2	-3	·
Cc1ccc(Cn2c(CN3CCN(C(=O)c4ccco4)CC3)nc3c2c(=O)n(C)c(=O)n3C)cc1	-3	-2	4%&3%	·	·	·	-0.9	·	3	-4.0
O=C1CSC(c2ccc(Cl)cc2)N1 (stereo not given)	-14	-3	2%	·	·	·	0.1	·	-13	-0.5

In the list so far, these contain an aryl methoxy group:
SMILES	T cruzi inh	Calb FLC	Vif TR-FRET	Ecoli rRNA inh	Ecoli rRNA inh OD600	Ecoli rRNA inh RFP	A1 inh	MLL AF4-AF9 inh	Beta apoptosis	RanGTP-Imp inh
COc1cc(C=C2C(=O)OC(c3ccccc3)OC2=O)cc(Br)c1O (stereo not given)	-21	3	16%	12	1	-2.9	-0.1	0.1	-1	-2.6
COc1cccc(-c2c(C(=O)N/N=C/c3ccc(C)s3)nnn2-c2nonc2N)c1	1	0	·	-12	-18	-1.8	0.7	-1.7	-7	1.8
COc1ccc(-n2c(SCC(N)=O)nnc2-c2ccco2)cc1	-9	3	·	11	4	1.7	0.1	1.5	-4	-2.5
COc1cccc(COc2ccccc2C2Nc3ccc(Br)cc3C(=O)N2NC(=O)c2ccncc2)c1 (stereo not given)	32	-4	-5%	·	·	·	1.2	·	-2	3.9
COc1cccc(CN(C(=O)c2ccccc2Cl)C2CCS(=O)(=O)C2)c1 (stereo not given)	0	-8	·	10	20	0.2	-0.4	-6.9	-6	0.3
COc1ccc(N2CCN(C(=O)CN(Cc3ccccc3)S(C)(=O)=O)CC2)cc1	-10	-4	-1%	-5	1	-2.5	-0.1	8.5	3	3.0
COc1cccc(NC(=O)CCCn2c(=S)[nH]c3ccccc3c2=O)c1	8	-18	-7%	·	·	·	0.5	·	2	1.4
COc1cc(C(=O)N2CCN(S(=O)(=O)c3ccc(C)cc3C)CC2)ccc1OCC(=O)N1CCOCC1	·	·	-8%	4	13	-0.3	0.1	-0.4	2	·
COc1cccc2cc(C(=O)NCc3ccccc3Cl)c(=O)oc12	3	-1	·	15	7	0.1	-1.8	-1.0	·	-1.9
